# YopH PTP inh: YopH (Yersinia) phosphatase inhibition; fluorescence Ex485/Em525; inhibition, %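 (about 10 µM by stock and volumes)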; 0.16% of 140,000 active;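 active = inhibition of 50% or more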;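 note: controls were vehicle for no effect and minimum signal wells for full effect; inactives centre near -20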
# Arbovirus anti: antivirals against arbovirus infection. arbovirus infection cell-based antiviral screen. 0.37% of 200,000 active. inhibition, % at 10 µM;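 active = inhibition from about 30%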;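 note: bluetongue infection of BSR cells; cell survival read as ATP light after 72 h; 0% = infected wells without compound and 100% = uninfected wells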
# Mtb bLac sens: beta-lactam sensitization of Mtb H37Rv; 0.27% of 330,000 active; inhibition, % at 25 µM; M. tuberculosis H37Rv growth with meropenem, percent inhibition; hits of this screen are not shown here;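 active = about 74% or more and at least 40 points above the plate without the antibiotic, then above 30% in a dose series; inconclusive = first-round hits that could not be retested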;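 note: growth measured after seven days incubation then overnight dye step; 0% = bacteria only wells and 100% = bacteria with antibiotic; twin plates without the antibiotic show which effects depend on it; some results filed as inactive read as strong as hits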
# Mtb growth: M. tuberculosis H37Rv growth inhibitors, H37Rv strain (AID 1626); M. tuberculosis H37Rv growth inhibition; higher % means a stronger effect; inhibition, % at 10 µM; hits with a dose series show IC50 in µM; 0.95% of 220,000 active;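 active = confirmed in a dose series; inconclusive = inhibition above 80% but not taken into the dose series; inactive = below 80% or under 30% at every dose of the series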;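 note: bacteria incubated seven days before Alamar blue readout; 0% = bacteria only wells and 100% = bacteria with antibiotic wells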
# RecA intein inh: blocks M. tuberculosis RecA intein splicing | P9WHJ3 | cell-free RecA intein splicing, fluorescence | inhibition, %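 (about 9 µM by stock and volumes)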 | 0.75% of 290,000 active | AID 2221; in the data active = inhibition above about 30%; inconclusive = no clear call, values can overlap the other calls;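 note: 0% = vehicle wells and 100% = reference inhibitor control wells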
# Target sequence (P9WHJ3 whole entry, looked up): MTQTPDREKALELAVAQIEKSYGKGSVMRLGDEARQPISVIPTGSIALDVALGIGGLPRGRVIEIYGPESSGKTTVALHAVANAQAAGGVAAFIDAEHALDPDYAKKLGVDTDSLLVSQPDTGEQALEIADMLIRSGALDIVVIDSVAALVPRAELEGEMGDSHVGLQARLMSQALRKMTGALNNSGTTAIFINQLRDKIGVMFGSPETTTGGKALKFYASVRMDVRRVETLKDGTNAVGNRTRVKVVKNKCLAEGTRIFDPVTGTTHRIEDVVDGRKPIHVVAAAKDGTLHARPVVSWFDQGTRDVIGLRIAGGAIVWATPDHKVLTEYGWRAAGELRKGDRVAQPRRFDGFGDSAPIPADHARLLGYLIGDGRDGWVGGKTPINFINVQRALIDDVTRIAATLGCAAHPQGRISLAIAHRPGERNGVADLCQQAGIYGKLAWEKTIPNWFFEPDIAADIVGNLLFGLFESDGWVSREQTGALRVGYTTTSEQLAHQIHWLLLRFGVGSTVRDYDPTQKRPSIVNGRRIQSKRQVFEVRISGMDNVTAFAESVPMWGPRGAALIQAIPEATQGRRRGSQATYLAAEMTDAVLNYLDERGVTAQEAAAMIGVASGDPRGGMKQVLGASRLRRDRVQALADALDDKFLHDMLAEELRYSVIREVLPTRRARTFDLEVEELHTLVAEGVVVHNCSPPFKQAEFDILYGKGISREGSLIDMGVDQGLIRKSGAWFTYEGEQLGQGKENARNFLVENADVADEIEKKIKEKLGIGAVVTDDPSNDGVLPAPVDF
# Arbovirus anti repeat: second read-out of Arbovirus anti, no call of its own (marks repeat the call); inhibition, %; measured here: 10K subset replicate screen; many hits read low in the repeat;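 first of two repeat runs on a subset; 0% = infected and 100% = uninfected wells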
# The depositor's hits bear a star; ? = inconclusive; . = not tested or not shown. The list is partial (hit frequency here may not be typical).
SMILES,YopH PTP inh,Arbovirus anti,Mtb bLac sens,Mtb growth,RecA intein inh,others
CCn1nnnc1SCC(=O)Nc1cc(OC)cc(OC)c1,-50,0,-8,7%,-0.2,
COc1ccc(/C=N/NC(=O)C2CCN(c3ncc(C(F)(F)F)cc3Cl)CC2)cc1,-39,-11,9,-7%,-2.4,
COc1cc(OC)cc(C(=O)N2CCN(C3CCN(Cc4ccccc4)CC3)CC2)c1,-8,-7,5,-5%,-1.8,
CCOC(=O)C1=C(C)N(CCCC(=O)O)C(=O)NC1c1cccs1 (stereo not given),.,.,-6,-13%,-0.6,
Cc1cc(CSC(=N)N)c(CSC(=N)N)cc1C,.,.,-7,2%,2.1,
CCOC(=O)C1=NNC(C(=O)c2ccc(Cl)cc2)C1c1ccccc1 (stereo not given),-28,2,8,8%,0.1,
O=C(O)C1Cc2ccccc2CN1C(=O)CSc1nnc2ccccn12 (stereo not given),.,0,-5,-3%,2.5,
O=C(Cn1c(O)c(/C=C2\C=Nc3ccccc32)sc1=O)N1CCOCC1,.,4,1,-8%,-1.4,
O=C(Nc1ccccc1C(F)(F)F)c1ccccc1Br,.,-8,0,-3%,0.1,
COc1ccc(N2CCN(C(=O)/C=C/c3ccco3)CC2)cc1,.,7,1,-5%,-3.3,
O=c1[nH]c(=O)n(Cc2ccco2)c(O)c1C=NCCN1CCOCC1,-14,-7,8,-3%,1.1,
Cc1cccc(C)c1OCC(=O)Nc1ccccc1C(=O)N1CCOCC1,.,.,-1,.,0.2,
COc1ccc(-n2c(SCC(=O)N3CCc4ccccc43)nnc2-c2c[nH]c3ccccc23)cc1,-29,-5,2,.,-1.2,
O=C(c1cccc(Cl)c1)N1CCN(C2CCCCCC2)CC1,5,-1,6,2%,-0.4,
COc1ccc2cc(C3NC(=O)c4ccccc4N3)c(Cl)nc2c1 (stereo not given),.,4,-15,7%,-2.5,

# Retrieved by compound from above:
SMILES,YopH PTP inh,Arbovirus anti,Mtb bLac sens,Mtb growth,RecA intein inh,others
O=c1[nH]c(=O)n(Cc2ccco2)c(O)c1C=NCCN1CCOCC1,-14,-7,8,-3%,1.1,
Cc1cc(CSC(=N)N)c(CSC(=N)N)cc1C,.,.,-7,2%,2.1,

# Other entries.
SMILES,YopH PTP inh,Arbovirus anti,Mtb bLac sens,Mtb growth,RecA intein inh,others
COc1ccc(-c2noc(N(C)CC(=O)Nc3cccc(C(F)(F)F)c3)n2)cc1,-8,7,-12,-14%,1.3,
Cc1sc(-c2ccccn2)nc1OC(=O)c1ccc(Cl)c(Cl)c1,-31,2,3,-2%,3.4,
OC(CNCc1ccc(Cl)cc1)(c1ccccc1)c1ccc(F)cc1 (stereo not given),.,7,21,-3%,4.1,
O=C(Nc1cccc(Cl)c1)NC1CCN(C2CCCCC2)C1 (stereo not given),.,.,-3,.,2.8,
CCCCN(C(=S)Nc1cccc(C)c1C)c1c(N)n(CCC)c(=O)[nH]c1=O,.,4,11,-1%,-0.9,
COc1cccc2c3c(c(C)nc12)CC(C)O3 (stereo not given),-26,11,-6,-4%,-1.7,
CC1Oc2ccccc2C=C1/C=C1/SC(N2CCOCC2)=NC1=O (stereo not given),-33,0,-8,2%,-17,
Cc1ccc(CN2CC(C(=O)NCC(=O)Nc3c(C)cccc3C)CC2=O)cc1 (stereo not given),.,.,-15,.,-4.3,
Cc1ccc(C(=O)NC(C)c2ccc(F)cc2)cc1 (stereo not given),0,1,-6,.,3.1,
CCN(CCCn1c(=S)[nH]c2ncccc2c1=O)c1ccccc1,-36,3,-7,6%,2.8,
Fc1cnc(N/N=C/c2ccc(-c3ccc(Br)cc3)o2)nc1N1CCOCC1,.,.,96,?,-2.1,
O=C(CNS(=O)(=O)Cc1ccccc1)NCc1ccccc1,.,.,6,.,-0.3,
CCC(CC)C(=O)c1c[nH]c(C(=O)NCCc2ccccn2)c1,-10,-1,-8,2%,-1.3,
CCn1c(N2CCN(C(=O)C34CC5CC(CC(C5)C3)C4)CC2)nc2ccccc21,3,-10,2,-6%,.,
Cc1ccc(Cn2cc(SCC(=O)Nc3nccs3)c3ccccc32)cc1,-45,-5,1,13%,0.4,
O=C(COc1coc(CN2CCc3ccccc32)cc1=O)Nc1ccccc1,.,.,4,.,-1.5,
CCOc1ccc(S(=O)(=O)N2CCCC(C(=O)NCC3CCCO3)C2)cc1 (stereo not given),.,.,2,.,-1.5,
N=C1CCCN1CC(=O)c1cccs1,.,10,-2,-7%,5.1,
Cc1ccc(C(=O)NCc2ccco2)cc1S(=O)(=O)N1CCCC1,.,.,-17,.,1.8,
CC(C)c1cc(-c2cc(-c3ccccc3)on2)nc(NC2CCCC2)n1,.,.,27,12%,-3.5,
O=C(Nc1cccc(C(F)(F)F)c1)c1cccnc1N1CCOCC1,-34,1,-1,-3%,8.7,
O=C(/C=C/Nc1ccc(Nc2ccccc2)cc1)c1cccs1,.,-9,.,0%,-2.4,
COC(C[C@@H]1O[C@H]1C(=O)COCc1ccccc1)OC,.,.,-6,-3%,8.1,
O=c1cc(N2CCC3(CC2)OCCO3)[nH]c(=O)n1C1CCCCC1,-52,0,-8,-4%,-0.7,
Cc1ccc(C2CC2c2n[nH]c(=S)n2-c2ccc(Cl)cc2)cc1 (stereo not given),-6,14,-11,3%,1.4,
O=C(CCC(=O)N1CCN(S(=O)(=O)c2ccc(Cl)cc2)CC1)Nc1ccc2ccccc2c1,-33,1,88,54%,3.0,
CCOCCCNC(=O)C(NC(=O)c1cnccn1)c1ccc(C)cc1 (stereo not given),-13,7,-3,1%,0.4,
CCn1cc(S(=O)(=O)N2CCCC2)cn1,.,.,-9,.,-4.0,
CCOC(=O)/C(=N\Nc1ccc(OC)cc1)c1csc(Nc2ccccc2)n1,2,-5,91,76%,11,
O=C(O)c1[nH]c2ccccc2c1CC(=O)N1CCN(c2ccccc2)CC1,.,3,-5,-2%,.,
Cc1nnc(NC(=O)c2sc3nc(-c4cccs4)cc(C(F)(F)F)c3c2N)s1,-5,4,?,20%,-9.0,
COC(=O)c1ccc(NC(=O)COc2ccc([N+](=O)[O-])cc2)cc1,.,.,-1,6%,1.0,
CN(CC(=O)Nc1ccc(F)c(F)c1F)C(=O)C1CC(=O)N(c2ccc3c(c2)OCCO3)C1 (stereo not given),.,.,-3,.,-0.7,
O=c1c2ccccc2ncn1Cc1ccc(Cl)c(Cl)c1,.,.,-1,.,-2.8,
COc1cccc(NC(=O)C2CCCN(S(C)(=O)=O)C2)c1 (stereo not given),.,.,-1,.,0.0,
CCCCN(C(=O)Cn1nnc2ccccc21)C(C(=O)NCCOC)c1cccs1 (stereo not given),-11,4,11,1%,1.3,
CSc1nnc([C@H](Cc2c[nH]c3ccccc23)NC(=O)OC(C)(C)C)o1,.,.,-7,-3%,-0.5,
CCOCCCNCC(=O)Nc1ccc(S(=O)(=O)NC(C)CC)cc1 (stereo not given),.,-2,-8,-4%,-1.0,
O=C(Nc1ccc(Br)cc1)c1csc(-c2ccncc2)n1,.,7,20,7%,1.2,
CN1C(=O)c2cccc(NC(=O)Cc3ccccc3)c2C1=O,0,3,18,3%,-4.2,Arbovirus anti repeat=4
Cc1nc(Oc2ccccc2)c2oc3ccccc3c2n1,-11,3,-2,-3%,2.7,
CCc1c(C)nc2ncnn2c1Nc1ccc(C)c(C)c1,-3,3,-11,1%,1.5,
Cc1csc2ncc(C(=O)Nc3ccccc3Cl)c(=O)n12,.,-7,3,8%,-1.8,
O=C(Nc1ccc(Cl)cc1Cl)c1ccc2c(=O)n3c(nc2c1)CCC3,.,.,1,.,4.3,
CCCNC(=O)NNC(=O)c1cc(-c2ccc3c(c2)OCO3)nc2ccccc12,.,.,-1,.,0.3,
COc1ccccc1CNC(=O)C1Cc2cc(S(=O)(=O)N3CCCC3)ccc2N1C(C)=O (stereo not given),.,.,-7,.,-0.8,
CCCCn1c(N)c(N(CCOC)C(=O)c2cccc(N3C(=O)c4ccccc4C3=O)c2)c(=O)[nH]c1=O,.,.,-2,.,-0.9,
COc1ccccc1NC(=O)CSc1nc(=O)n(CCN(C)C)c2c1CCCC2,.,.,-4,.,2.3,
O=Nc1c(O)n(Cc2cccc(Cl)c2)c2ccccc12,-33,8,3,-7%,8.8,
COCCCNC(=O)c1cc(-c2cccnc2)nc2ccc(S(=O)(=O)N3CCCCCC3)cc12,.,.,5,.,1.0,
CC(C)C(O)(C#CCN1CCCCC1)C(C)C,-22,-1,-4,-1%,0.3,
Cc1ccccc1C(=O)Nc1ccc(C(=O)NNC(=O)CCCOc2ccc(Cl)cc2Cl)cc1,-22,13,-2,2%,-1.5,
CCC(=O)N1CCc2cc(S(=O)(=O)CCC(=O)Nc3ccc(CC)cc3)ccc21,-27,5,-9,.,2.2,
CN1C(=O)[C@H]2[C@@H](c3ccc(F)cc3)N3C(=O)c4ccccc4NC(=O)[C@@]3(C)[C@H]2C1=O,.,.,-5,.,0.0,
CCn1nnnc1SCC(=O)Nc1ccc(F)cc1,.,.,-1,.,1.7,
CN(C)/C=N/C(=S)Nc1ccc(Cl)c(Cl)c1,.,7,0,76%,-2.9,
O=S1(=O)CCC(NS(=O)(=O)/C=C/c2ccccc2)C1 (stereo not given),1,3,-3,4%,0.0,
Cc1nc(N2CCOCC2)nc(N2CCN(c3ccccc3)CC2)c1[N+](=O)[O-],-26,-1,4,1%,0.4,
Cc1oc(C(=O)O)cc1COc1cccc2cccnc12,-30,11,-2,-2%,-1.8,
Cc1ccc(-n2c(SCC(=O)Nc3cccc(C)c3)nc3c(oc4ccccc43)c2=O)cc1,-19,3,-1,0%,1.8,

# (continued)
SMILES,YopH PTP inh,Arbovirus anti,Mtb bLac sens,Mtb growth,RecA intein inh,others
O=C(COc1cccc2c1CCN(Cc1ccc(Br)cc1)C2=O)NCc1ccco1,-26,-17,-7,.,0.9,
Cc1ccc2oc(=O)c3cnn(CC(=O)NCCN(C)C)c3c2c1,-43,-1,2,-4%,-1.4,Arbovirus anti repeat=0
COc1cc(NC(=S)Nc2ccc(OC(F)F)cc2)cc(OC)c1,.,.,-2,-2%,0.1,
Cc1nn(Cc2ccccc2Cl)c(C)c1C(=O)OCC(=O)N1CC(C)OC(C)C1 (stereo not given),-5,3,-5,4%,-2.5,
Cc1c(Cl)cccc1N1CC(C)(C)C1=O,.,4,-4,-5%,-1.3,
Cc1ccc(S(=O)(=O)N2CCOCC2)cc1C(=O)NC(=S)N(Cc1ccccc1)C(C)C,-14,3,-1,3%,-1.5,
Nc1nnn(CC(=O)N/N=C/c2cn[nH]c2-c2ccccc2)n1,.,.,-9,.,-1.8,
CC1=C(C(=O)Nc2cccc(C(=O)N3CCC(C(N)=O)CC3)c2)SCCO1,.,.,-3,.,-1.8,
Cc1ccc(S(=O)(=O)c2ccc(NC(=O)c3c(F)cccc3F)cc2)cc1,.,.,-2,.,5.7,
CC(C(=O)N(C)C)N1c2cccc3cccc(c23)S1(=O)=O (stereo not given),.,.,0,.,-0.1,
O=C(N/N=C/c1cccc([N+](=O)[O-])c1)c1ccccc1-n1cccc1,.,6,-7,-5%,2.5,
Cn1nc(CC(=O)NCCN2C(=O)CSC2=O)c2ccccc2c1=O,-28,3,-12,-7%,-2.3,
CCN(CC)S(=O)(=O)c1ccc2oc(C(=O)NC(C)C)c(C)c2c1,-31,-8,-2,3%,-0.5,
CCN1C(=O)[C@H]2[C@@H](c3ccc(-c4ccccc4)cc3)N[C@@](Cc3ccccc3)(C(=O)OC)[C@H]2C1=O,.,.,12,.,-0.3,
COc1ccc(S(=O)(=O)N2CCCCCC2)cc1NC(=O)Cc1cc(OC)c(OC)c(OC)c1,-33,6,5,-3%,0.2,
COC(=O)[C@H](CCSC)NC(=O)NC1CC1,.,.,0,-11%,4.4,
CSc1ncccc1-c1nc2ccccc2[nH]1,-10,-4,-6,-4%,3.3,
Cc1cccc2cc(CN(Cc3cccs3)C(=S)NCC3CCCO3)c(=O)[nH]c12 (stereo not given),-18,4,-6,3%,6.9,
O=C(Oc1cccnc1)c1cc(S(=O)(=O)N2CCCCC2)ccc1Cl,12,4,6,-8%,8.8,
COc1ccc(CN2CCN(C(=O)c3cccnc3)CC2)cc1Br,-20,3,-2,-3%,-1.4,

# Part of the list above in order of molecular weight, descending:
SMILES,YopH PTP inh,Arbovirus anti,Mtb bLac sens,Mtb growth,RecA intein inh,others
CCN1C(=O)[C@H]2[C@@H](c3ccc(-c4ccccc4)cc3)N[C@@](Cc3ccccc3)(C(=O)OC)[C@H]2C1=O,.,.,12,.,-0.3,
COc1ccc(CN2CCN(C(=O)c3cccnc3)CC2)cc1Br,-20,3,-2,-3%,-1.4,
O=C(Oc1cccnc1)c1cc(S(=O)(=O)N2CCCCC2)ccc1Cl,12,4,6,-8%,8.8,
Cn1nc(CC(=O)NCCN2C(=O)CSC2=O)c2ccccc2c1=O,-28,3,-12,-7%,-2.3,
COC(=O)[C@H](CCSC)NC(=O)NC1CC1,.,.,0,-11%,4.4,
CSc1ncccc1-c1nc2ccccc2[nH]1,-10,-4,-6,-4%,3.3,

# Bioassay records from PubChem BioAssay.
